Bioassay records (PubChem)
Chronic BCR inh = qHTS Assay to Find Inhibitors of Chronic Active B-Cell Receptor Signaling; ABC-DLBCL IkBa-CBG/CBR reporter, luminescence ratio, 4 h; AID 493014, 2011; Potency, µM (doses to about 46.1 µM), for inactives: at the highest dose ratio change, negative = lower green/red ratio, usual class: inhibitors; 0.05% of 340,000 active; active means well fitted inhibition curve with a large enough effect in the signal ratio, with a control signal flat, not every such curve was filed as active; inconclusive means small, poorly fitted or top-dose-only effect, or effect the other way, or a change in a side signal; the % refers to the signal ratio;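 further: potency means the concentration at half of the fitted maximal effect; plate controls were basal doxycycline-induced cells for no effect and cells given 10 µM MG132 for full effect; MG132 reads +100%, hits lower the ratio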
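Cell line TMD8 (human ABC DLBCL), stably expressing tet-inducible CBG68-IkBa fusion and CBR; IMDM/0.5% FBS; cpd up to 46 uM; dox induction, 4 h, 37C/5% CO2; dual luminescence; green/red ratio; MG132 control.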
GALK inh = qHTS Assay for Inhibitors of Human Galactokinase (GALK) | P51570 | Purified GALK, Kinase-Glo residual ATP luminescence | Potency, µM (series often up to 57.5 µM), inactives show at the top dose activity change, negative = inhibition, actives largely listed as inhibitors | 0.007% of 270,000 active | AID 1868, 2009; further: potency means the concentration at half of the fitted maximal effect; on the % scale 0 is the no-effect control and ±100 the full control effect
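GALK at 5 nM final was combined with compound, 35 uM ATP and 100 uM galactose in HEPES pH8.0 with MgCl2 and DTT. The reaction ran one hour at room temperature before luminescent ATP detection.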
AT treatment = qHTS Assay for Identifying a Potential Treatment of Ataxia-Telangiectasia. […] A-T fibroblasts, KAP-1 phosphorylation AlphaLISA; neocarzinostatin DNA damage 30 min before lysis. Potency, µM (top dose mostly 57.5 µM), without a hit: at the highest dose activation, actives largely listed as activators. 0.19% of 320,000 active. AID 485349, 2010; further: potency means the concentration at half of the fitted maximal effect; % of control where 0% means no effect; nearly all actives have a fitted effect of over 45% in size
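ATM-like activity read as KAP-1 phosphorylation via AlphaLISA donor/acceptor antibody pairs after lysis and 6 hr at 25C. Cells were ATM-null patient fibroblasts ([…], hTERT), dosed 60 min, then exposed to the DSB inducer NCS for 30 min.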
Giardia kill = Small Molecules that selectively kill Giardia lamblia: qHTS | Giardia lamblia trophozoite viability | activity change, % at 7.66 µM, hits read low | 0.15% of 340,000 active | AID 540267, 2011; in the data active means activity change below about -80%; inconclusive means between about -30% and that limit;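 further: parasites exposed to compound for two days anaerobically before the ATP read; on the % scale 0 is the no-effect control and ±100 the full control effect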
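Killing of trophozoites was scored by loss of ATP luminescence after a 48 hrs anaerobic exposure to compounds at 37 deg C, using 100 cells per well.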
KCNH2 WT inh = qHTS for Inhibitors of KCHN2 3.1: Wildtype qHTS | AID 720551, 2013 | U2OS, BacMam KCNH2, thallium flux FluxOr; hits give low values | activity change, % at 1.84 µM | Voltage-gated inwardly rectifying potassium channel KCNH2 (Homo sapiens), Q12809 | 0.37% of 340,000 active;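 active means maximum activity change below -70%; inconclusive means maximum activity change between -70% and -50%; inactive means maximum activity change above -50%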; further: on the % scale 0 is the no-effect control and ±100 the full control effect
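U2OS cells transduced with wild-type KCNH2 virus are loaded with FluxOr dye for 45 min, and thallium flux is measured in kinetic reads before and after stimulation buffer. Rate constants are normalized to DMSO controls.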
Coupling enz = qHTS Assay for Inhibitors of Fructose-1,6-bisphosphate Aldolase from Giardia Lamblia: Coupling assay counterscreen; activity change, negative = inhibition, % at 58.2 µM, hits read low; coupling enzyme system counterscreen, AmpLite Red fluorescence; AID 2472, 2010; 0.67% of 290,000 active; in the data active means activity change below about -30%; further: on the % scale 0 is the no-effect control and ±100 the full control effect
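Counterscreen of the coupled detection system alone, without aldolase: glyceraldehyde-3-phosphate coupling enzymes plus AmpLite Red readout. Compounds at 57.5 uM final, 10 min RT preincubation, 20 min RT reaction, fluorescence 525/598 nm.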
MLL CXXC-DNA inh = qHTS Fluorescence Polarization Assay for Inhibitors of MLL CXXC domain - DNA interaction; MLL-CXXC / FITC-HOXA9 DNA fluorescence polarization; AID 2662, 2010; Histone-lysine N-methyltransferase 2A (Homo sapiens), Q03164; Potency, µM (series often up to 115 µM), for inactives: at the highest dose activity change, negative = inhibition, hits mostly inhibitors; 0.037% of 290,000 active; active means well fitted inhibition curve with a large enough effect in the polarisation, with a control signal flat, not every such curve was filed as active; inconclusive means small, poorly fitted or top-dose-only effect, or effect the other way, or a change in a side signal; inactive means no such curve, though single readings can be large or run the other way; the % refers to the polarisation; further: potency means the concentration at half of the fitted maximal effect
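Purified MLL-CXXC (added from a 7 uM solution) was preincubated 5 min at ambient with pinned compounds in 50 mM Tris-HCl pH 7.5, 50 mM NaCl, 1 mM DTT, 0.05% BSA. Fluorescein-labeled HOX-A9 DNA (50 nM solution) followed, 30 min, then polarization read.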
Tb PFK block = qHTS Assay to Find Inhibitors of T. brucei phosphofructokinase; ATP-dependent 6-phosphofructokinase (Trypanosoma brucei brucei), O15648; T. brucei PFK, ADP-Glo luminescence; Potency, µM (top dose mostly 57.5 µM), inactives show top-dose activity, negative = inhibition, actives largely listed as inhibitors; 0.17% of 330,000 active;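 further: potency means the concentration at half of the fitted maximal effect; 0% = uninhibited 1x PFK enzyme wells and -100% = no-enzyme wells; nearly all actives have a fitted effect of over 60% in size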
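PFK 1.25 nM, F6P 0.5 mM, ATP 0.1 mM, 0.1 M TEA pH 8.0, 5 mM MgCl2, 0.01% Tween20, 0.1% BSA; 45 min RT. ADP-Glo readout. qHTS titration up to 57 uM; curves fitted, compounds curve-classed.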
TCR act = Activators of T cell receptors: qHTS campaign | primary human leukocytes, anti-CD3, IL-2 HTRF, 48 h | Potency, µM (highest dose often 9.22 µM), for inactives: at the top dose activation of IL-2 secretion, actives largely listed as activators | 330,000 tested, under 10 active | AID 504894, 2011; further: % of control where 0% means no effect
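48 hr co-incubation of compounds, a-CD3 beads and primary human leukocytes; IL-2 quantified homogeneously by HTRF with anti-IL-2 K and d2 conjugates.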
Starred values were filed as active, the others as inactive; ? = inconclusive; · = not tested or not shown; & = joins results of further samples; [ ] = remark or other dose. Unless noted, the call rests on the fitted dose curve; in most records, active means well fitted curve in the direction sought with a large enough effect; inconclusive means small, poorly fitted or top-dose-only effect, or another doubt; inactive means no such curve, though single readings can be large; an effect the other way counts as inactive or inconclusive. Some of the compounds tested. The share of hits here may be higher or lower than overall.

SMILES	Chronic BCR inh	GALK inh	AT treatment	Giardia kill	KCNH2 WT inh	Coupling enz	MLL CXXC-DNA inh	Tb PFK block	TCR act
COc1ccc(/C=C2/S/C(=N/N=C3\CC4CCC3(C)C4(C)C)NC2=O)cc1 (stereo not given)	?	-1%	4%	5	3	·	-5%	0%	4%
Cc1ccc(NC(=O)c2cccs2)cc1S(=O)(=O)Nc1cccc(Cl)c1	?	-4%	11%	45[activator]	3	1	-1%	0%	-1%[46.1 µM]
CC1CC2C(C(O)C[C@]3(C)C2CC[C@]3(O)C(=O)CO)[C@]2(C)C=CC(=O)C=C12 (stereo not given in full)	·	·	·	·	·	3	·	·	·
Cc1c(-c2ccccc2)[nH]n2c(=O)c3c(nc12)CCCC3	?	0%	7%	1	7	0	4%	-1%	3%[46.1 µM]
Cc1ccc(C)c(OCc2cc(C(=O)N3CCC(N4CCCC(O)C4)CC3)no2)c1 (stereo not given)	-1%	2%	2%	-16	9	1	-6%	0%	-7%
CN1CCN(CC(=O)Nc2nc3ccccc3s2)CC1	?	-5%	-1%	12	2	-3	12%	1%	·
Cc1[nH]n2c(=O)c3c(nc2c1-c1ccccc1)CCCC3	-1%	-1%	-12%	-11	-3	5	-6%	-4%	-2%
Cc1ccc(S(=O)(=O)c2c(O)c3ccc(C(=O)O)cc3[nH]c2=O)cc1	9%	·	-9%	-9	2	15	12%	-2%	-4%
CC(C)n1cnnc1SCC(=O)NNC(=O)COc1ccc(Cl)cc1	4%	·	-6%	-15	17	·	·	-4%	5%
COc1ccc(NC(=O)Nc2ccc(OCc3ccccc3)cc2)cn1	2%	1%	14%	-16	-40	0	?	-2%	2%
N=C(N)c1ccc(/C=C/c2ccc(C(=N)N)cc2O)cc1	4%	·	4%	3	-3	5	27%&6%	-5%	9%
CC(C)OCCCNC(=O)CCCC(=O)Nc1ccc(OCCc2ccccc2)cc1	4%	1%	?	4	4	1	-9%	1%	-2%
O=C1CN(/N=C/c2ccc(-c3ccc([N+](=O)[O-])cc3)o2)C(=O)N1	·	·	·	·	·	·	-5%	·	·
O=C(CCN1C(=O)c2ccccc2C1=O)Nc1ccc(F)cc1F	-3%	-2%	8%	10	-8	0	-11%	0%	·
COc1ccc(CN2CCNC(=O)C2CC(=O)NCCC2=CCCCC2)cc1OC (stereo not given)	?	5%	2%	-4	-5	-4	8%	-8%	7%
CCCCOc1ccccc1-c1cc(C(=O)O)[nH]n1	5%	0%	-9%	14	4	1	-10%	-3%	-11%
COc1ccccc1N1C(=O)C2C(C(=O)c3ccccc3)=NN(c3ccccc3OC)C2C1=O (stereo not given)	-1%	2%	10%	-2	-4	0	?	0%	-8%
CCC(c1nnnn1Cc1ccco1)N1CCN(c2cc(Cl)ccc2C)CC1 (stereo not given)	4%	7%	5%	4	2	-1	-2%	-6%	6%
COC(=O)c1cc(S(=O)(=O)NCC2CCN(Cc3ccc(Cl)cc3)CC2)cn1C	0%	3%	4%	2	19	-1	7%	-22%	2%
O=C(NC1CCCC1)C(c1ccccc1)N(C(=O)c1ccco1)C1CCCC1 (stereo not given)	-7%	1%	0%	-10	-18	0	5%	-1%	-7%[46.1 µM]
Oc1ccc(N2CCN(Cc3cc4c(cc3Br)OCCO4)CC2)cc1	0%	5%	3%	21	2	1	3%	?	-7%
C=CCn1c(COc2ccc(Cl)cc2)nnc1SCC(=O)Nc1ccc(S(N)(=O)=O)cc1	-5%	·	2%	-5	-6	0	2%	-12%	-3%
O=C(N1CCOCC1)N1CCN(S(=O)(=O)c2ccc(Cl)cc2)C1	7%	0%	-4%	-9	-2	1	2%	1%	4%
O=S(=O)(c1ccc(F)cc1)N1CCN(Cc2cc3c(cc2Br)OCCO3)CC1	7%	·	-4%	-14	9	·	·	2%	-3%
O=C1CCCCC1	-6%	·	1%	-7	7	·	·	5%	-6%
Next section:
SMILES	Chronic BCR inh	GALK inh	AT treatment	Giardia kill	KCNH2 WT inh	Coupling enz	MLL CXXC-DNA inh	Tb PFK block	TCR act
CO[C@@]1(NC(=O)CSCC#N)C(=O)N2C(C(=O)O)=C(CSc3nnnn3C)CSC21 (stereo not given in full)	·	·	·	·	·	-1	·	·	·
CCC(=O)c1ccc2c(c1)N(CCCN(C)C)c1ccccc1S2	·	·	·	8	8	·	9%	·	7%
CC1=C(CC(=O)O)c2cc(F)ccc2/C1=C\c1ccc(S(C)(=O)=O)cc1	·	·	·	·	·	·	-5%	·	·
CCOC(=O)C1CCN(C(=O)NC23CC4CC(CC(C4)C2)C3)CC1	2%	-1%	4%	8	-1	2	2%	-5%	-6%
C=C1C[C@H]2[C@@H]3C=C(C)C4=CC(=O)CC[C@]4(C)[C@H]3CC[C@]2(C)[C@@]1(OC(C)=O)C(C)=O	?	·	1%	-27	10	-6	·	-3%	6%
Fc1cccc(Cl)c1CSc1ncn[nH]1	-21%	-1%	7%	8	22	-5	1%	-2%	2%
CC(=O)Nc1cccc(-c2nc3ccc(NC(C)=O)cc3s2)c1	?	0%	-2%	-24	·	-1	2%	1%	2%
Cc1ccccc1N(C(=O)c1ccco1)C(C(=O)NC1CCCC1)c1cccnc1 (stereo not given)	-2%	4%	1%	-2	-1	0	-1%	0%	3%
CC(C)c1ccc(NC(=O)CCCC(=O)NCCc2ccccc2)cc1	-1%	2%	5%	2	-16	3	1%	0%	·
COc1ccccc1N(C(=O)c1snc(C(N)=O)c1N)C(C(=O)NCCC(C)C)c1ccco1 (stereo not given)	?	-1%	2%	13	-12	2	-1%	0%	·
CCn1c(=N)n(CC(=O)OC)c2ccccc21	4%	3%	19%	-2	2	2	7%	3%	8%
COc1cc(Br)c(CC(=O)NNC(=O)c2ccc(F)cc2)cc1OC	-3%	·	5%	-1	3	·	·	-2%	6%
CC(NC(=O)NC1CCCCC1)c1ccc2c(c1)OCO2 (stereo not given)	?	-2%	9%	13	-4	2	12%	-1%	2%
COC(=O)Oc1ccc(/C=N/NC(=O)CSCc2ccccc2Br)cc1OC	?	0%	-2%	-3	0	-2	9%	4%	-10%
Cc1nn(Cc2ccccc2Cl)c(C)c1NC(=O)/C=C/c1cnn(C)c1	-1%	0%	0%	7	11	-1	-10%	2%	5%
CC1=C(CC(=O)O)c2cc(F)ccc2/C1=C\c1ccc(S(C)=O)cc1 (stereo not given)	?	2%	11%	-23	-5	1&6&-13&-1	-2%&-3%&-6%	1%	10%
CN(C)CCN(C(=O)CN1C(=O)c2ccccc2C1=O)c1nc2cc3c(cc2s1)OCO3	-5%	-7%	-7%	-7	-3	-2	13%	-9%	1%
O=C(Nc1ccc(NC(=O)c2ccccc2F)cc1)c1cccs1	0%	·	5%	4	-5	·	·	3%	13%
O=C(NCc1ccco1)C1(S(=O)(=O)c2ccc(Cl)cc2)CC1	-1%	0%	10%	-8	2	-5	-7%	-19%	2%
Cc1[nH]c(=O)[nH]c(=O)c1S(=O)(=O)Nc1cccc(C(F)(F)F)c1	7%	5%	-1%	3	-2	6	2%	-4%	6%
CCOC(=O)C1CCN(C(=O)c2ccc3c(c2)NC(=O)/C(=C\c2ccc(C)cc2)S3)CC1	3%	-4%	-2%	-8	42	-1	17%	4%	8%
CC(C)c1ccc(NC(=O)COc2ccccc2)cc1	?	-1%	12%	2	-2	2	1%	1%	·
COc1ccc(NC(=O)Nc2cccc(C(F)(F)F)c2)cn1	17%	13%	4%	2	4	0	-7%	-9%	-2%
CC(=O)Nc1cc(C)c2nc(NC(C)=O)sc2c1	?	1%	2%	6	6	0	-10%	8%	13%
Cc1c(OC(C)C(=O)N2C[C@H]3C[C@@H](C2)c2cccc(=O)n2C3)ccc2c3c(c(=O)oc12)CCC3 (stereo not given in full)	-28%	·	-5%	-1	0	-1	13%	3%	0%
Next results.
SMILES	Chronic BCR inh	GALK inh	AT treatment	Giardia kill	KCNH2 WT inh	Coupling enz	MLL CXXC-DNA inh	Tb PFK block	TCR act
Cc1cc(C)c(S(=O)(=O)Nc2cccc(/C=C/C(=O)O)c2)c(C)c1	-1%	1%	5%	-10	3	-27	3%	5%	3%[46.1 µM]
O=C1Nc2cc(C(=O)N3CCOCC3)ccc2S/C1=C\c1ccccc1	?	4%	-2%	13	3	·	-3%	-3%	19%
COc1ccc(-c2csc3ncnc(N4CCN(c5ccccc5O)CC4)c23)cc1	-13%	-2%	-4%	-2	-11	·	9%	1%	-7%
Cc1nnc(NC(=O)CSCc2c(C)noc2C)s1	2%	·	-2%	7	-3	·	·	-1%	7%
FC(F)(F)c1cnc(-c2cnc3c(-c4ccc(Cl)cc4)cnn3c2)c(Cl)c1	9%	0%	-2%	2	-10	1	2%	-8%	0%
CC(=O)c1sc(NC(=O)CSCc2c(C)noc2C)nc1-c1ccccc1	-2%	·	4%	-10	-7	·	·	9%	-4%
CC(C)OCCCNC(=O)COCC(=O)Nc1ccc(OCCc2ccccc2)cc1	-2%	-2%	6%	26	5	2	4%	-3%	5%
